Biofilm kill mix: mixture kills Candida albicans biofilm cells. inhibition, % at 7.6 µM. AID 1242. 0.02% of 120,000 active. C. albicans biofilm persisters + clotrimazole, fluorescence viability; primary screen in compound mixtures of four per well;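 active = inhibition above 30.3% in the primary screen of four-compound pools, then above 30% when the compound was retested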;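 also: compounds exposed to preformed 24 h biofilms for 48 h; the number belongs to the whole pool; some results filed as inactive read as strong as hits; inactives centre near 12; 0% = biofilm with clotrimazole alone and 100% = kill control; retested singly at about 60 µM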
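System: C. albicans CAF4-2 wild-type biofilms; Medium: RPMI/MOPS medium, pH 7.0; Reagent: Clotrimazole, 50 µg/mL; Times: biofilm formation 24 h, compound exposure 48 h, 37 °C; Detection: 2-h Alamar Blue fluorescence, 535/590 nm excitation/emission; Evaluation: percent inhibition of biofilm viability.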
Active calls of the source: *.

SMILES | Biofilm kill mix
O=S(=O)(CCc1ccncc1)Cc1ccc2c3c(cccc13)CC2 | 18
O=C(Cc1ccccc1)NNc1c2ccccc2nc2ccccc12 | -21
Cc1cc(N)n(Cc2ccc(Cl)cc2)n1 | 1
O=C(Nc1ccc2c(c1)C(=O)NC2=O)c1ccc2ncsc2c1 | 16
Cc1cc(=O)oc2cc(OCc3ccc(C(=O)N4CCN(c5ccc([N+](=O)[O-])cc5)CC4)cc3)ccc12 | 7
COCC(C)NC(=O)C(C)Oc1ccccc1 (stereo unspecified) | 16
O=C(O)CCCNC(=O)CCCn1nnc2ccccc2c1=O | 29
CCN(Cc1ccccc1)S(=O)(=O)c1cc(C(=O)O)ccc1OC | 13
Cc1[nH]c(=O)c(C#N)c(C)c1Cl | 18
CN(C)CCCNc1ncc(C(F)(F)F)cc1Cl | 5
Nc1cccc2nsnc12 | 24
O=C(NCC1CCCO1)C(=Cc1cccc([N+](=O)[O-])c1)C(=O)NCC1CCCO1 (stereo unspecified) | 8
COc1ccc(S(=O)(=O)N2CCCC2)cc1C(C)C | 10
Cc1ccccc1NC(=O)CSc1nc(N)c2c3c(sc2n1)CSC(C)(C)C3 | 6
CN(CCO)CCC(=O)NC1(C)CS(=O)(=O)CC1S(=O)(=O)O (stereo unspecified) | 16

Some of the entries so far, in CSV form:
SMILES,Biofilm kill mix
Cc1cc(=O)oc2cc(OCc3ccc(C(=O)N4CCN(c5ccc([N+](=O)[O-])cc5)CC4)cc3)ccc12,7
COCC(C)NC(=O)C(C)Oc1ccccc1 (stereo unspecified),16

Back to the main list, repeating the three entries before the break.
SMILES | Biofilm kill mix
COc1ccc(S(=O)(=O)N2CCCC2)cc1C(C)C | 10
Cc1ccccc1NC(=O)CSc1nc(N)c2c3c(sc2n1)CSC(C)(C)C3 | 6
CN(CCO)CCC(=O)NC1(C)CS(=O)(=O)CC1S(=O)(=O)O (stereo unspecified) | 16
Cc1cc(NC(=O)CSc2nc3c(cc2C#N)CCCCC3)no1 | 14
Cc1cc(C)nc(N2CCCC(CCC(=O)NCc3ccc(F)c(F)c3)C2)n1 (stereo unspecified) | 16
Cc1ccc(-n2c(C)nn(CC#N)c2=O)cc1 | 13
CN(Cc1ccccc1)c1ccc([N+](=O)[O-])cc1C(=O)O | 9
Cc1cccc(Nc2ccc(C(=O)N3CCOCC3)cn2)c1 | 15
CCCNC(=O)c1ccc2c(=O)c(O)c(-c3ccsc3)[nH]c2c1 | 16
COc1ccc(Cl)cc1NC(=O)CNCC(c1ccccc1)N(C)C (stereo unspecified) | 10
CC(C)OC(=O)c1cc2ccccc2[nH]1 | 18
CC(=O)c1cccc(Nc2cc(C)nc3ccccc23)c1 | 20
O=C(COC(=O)c1cc[n+]([O-])cc1)Nc1ccccc1Cl | 7
Cc1ccc(C(=O)NC(=S)Nc2ccc(NC(=O)c3cccs3)cc2)cc1[N+](=O)[O-] | 6
Cn1c(=O)cc(OCC(=O)N2CCN(c3ccccc3F)CC2)c2ccccc21 | 18
CN1C(=O)/C(=C\c2ccncc2)SC1=Nc1ccccc1 | 6
CCOc1cc(/C=N/OC(C)=O)ccc1OCc1ccccc1 | 10
Cc1ccc(-n2c(-c3ccccc3)n[nH]c2=S)cc1 | 6
CCC(=O)Nc1ccc2nc(C)n(Cc3ccccc3Cl)c(=O)c2c1 | 14
CCN(CCn1cccn1)C(=O)CC1C(=O)NCCN1Cc1ccc(F)c(F)c1 (stereo unspecified) | 36
O=C1CNC(=S)N1Cc1ccccc1 | 18
O=C(CCc1nnc(C2CCCCC2)o1)N1CCN(c2ccccc2F)CC1 | 12
C=CCn1c(-c2cc3cccc(OC)c3o2)n[nH]c1=S | 9
COc1ccc(CN2CCN(S(=O)(=O)c3ccc(NC(C)=O)cc3)CC2)c(OC)c1OC | 2
Cc1nnc(NC(=O)/C=C/c2ccco2)s1 | 20
CCC(=O)Nc1cc(ON=C(C)C)cc([N+](=O)[O-])c1 | 13
Cc1nc(NC(=O)COC(=O)c2cc3c(s2)CCC(C)C3)c(Cl)cc1Cl (stereo unspecified) | -5
Cc1ccc(Cn2c(=N)n(CC(=O)c3ccccc3)c3ccccc32)cc1 | 47
CCN(Cc1ccccc1)C(=O)CS(=O)(=O)c1ccccc1 | 6
COc1ccc(C(CC(=O)N2CCCC(C)C2)c2c(OC)cc(OC)c3ccc(=O)oc23)cc1 (stereo unspecified) | 4
Cn1c(SCc2cccnc2)nc2c(c1=O)SCC2 | -5
CN(C)Cc1nc2ccccc2c(=O)n1CC#N | 12
O=C(COc1ccccc1)OCc1csc(Nc2ccccc2)n1 | 17

Among those listed so far, these contain two or more sulfur atoms:
SMILES | Biofilm kill mix
Cc1ccccc1NC(=O)CSc1nc(N)c2c3c(sc2n1)CSC(C)(C)C3 | 6
CN(CCO)CCC(=O)NC1(C)CS(=O)(=O)CC1S(=O)(=O)O (stereo unspecified) | 16
Cc1ccc(C(=O)NC(=S)Nc2ccc(NC(=O)c3cccs3)cc2)cc1[N+](=O)[O-] | 6
Cn1c(SCc2cccnc2)nc2c(c1=O)SCC2 | -5

Sorted by number of heavy atoms (largest number first): 3 of the compounds above.
SMILES | Biofilm kill mix
CCC(=O)Nc1ccc2nc(C)n(Cc3ccccc3Cl)c(=O)c2c1 | 14
Cc1nnc(NC(=O)/C=C/c2ccco2)s1 | 20
O=C1CNC(=S)N1Cc1ccccc1 | 18

Remaining list, next part.
SMILES | Biofilm kill mix
O=C(c1ccc(F)cc1)C1CCN(Cc2cn[nH]c2-c2ccccc2)CC1 | 19
CC(=C/C(=O)O)/C=C/c1ccco1 | 15
COc1ccccc1NC(=O)c1ccccc1C(=O)O | 9
CC(C)(C)c1cc(NC(=O)c2ccc(OC3CCCC3)cc2)no1 | 11
CCC(C)/C(C)=N/NC(=O)CSc1nc2ccccc2[nH]1 (stereo unspecified) | 7
Cc1onc(-c2ccccc2Cl)c1C(=O)OCC(=O)Nc1cccc(S(=O)(=O)N(C)C)c1 | 7
COC(=O)c1ccc(NC(=O)c2ccccc2-c2ccccc2C(=O)O)cc1 | 19
CCOc1ccc(CN(C(=O)c2cc3ccccc3oc2=O)C2CCS(=O)(=O)C2)cc1 (stereo unspecified) | 10
Cc1cc([N+](=O)[O-])nn1Cn1nc([N+](=O)[O-])cc1C | 11
C=CCNC(=O)/C(C#N)=C/c1c(C)nn(-c2ccccc2)c1Cl | 17
CCCNC(=O)C1CCN(c2cc(-c3ccccc3)nc3ncnn23)CC1 | 17
COc1ccc(-c2cc(C(=O)Nc3cc(C)on3)no2)cc1 | 12
O=C(Cc1cccs1)Nc1nnc(C2CC2)s1 | -1
CCc1ccc2oc(C(=O)NCc3ccncc3)c(C)c2c1 | 20
Cc1ccnc(Nc2nc3ccccc3s2)n1 | 3
COc1ccc(-c2cn3cccnc3n2)cc1NC(=O)c1cccs1 | 12
CC1(C)Oc2ccccc2OC1(O)c1ccc2ccccc2n1 (stereo unspecified) | 11
O=C(NC(=S)Nc1cccc2ncccc12)c1cccs1 | 18
O=C(CC1C(=O)N(c2ccccc2)C(=O)N1Cc1ccco1)Nc1ccccc1 (stereo unspecified) | 18
O=C1C=CC(=O)N1c1ccc(OC(F)F)cc1 | 12
CC(C)(C)c1ccc(S(=O)(=O)N2CCC(c3nc4ccc(Cl)cc4[nH]3)CC2)cc1 | 18
CCCn1c(=S)[nH]c2cc(C(=O)N3CCN(c4ccccc4OC)CC3)ccc2c1=O | 10
Cc1[nH]c2ccccc2c1/C=C/C(=O)c1ccccc1 | 21
O=C(Nc1nc2c(Br)cc(Br)cc2c(=O)s1)C1CCC1 | 24
CCOC(=O)c1sc(NC(=O)CCCn2nc([N+](=O)[O-])cc2C)c(C(=O)OCC)c1C | -13
COC(=O)C1=C(C(=O)OC)C(c2cc(Br)ccc2O)c2sc(=O)[nH]c2S1 (stereo unspecified) | 16
O=c1cc(CN2CCc3ccccc32)c2ccc(O)cc2o1 | 5
Cc1cccc(C)c1NC(=O)C(=O)c1cn(C)c2ccccc12 | 14
O=C(c1ccco1)N1N=C(c2ccncc2)CC1(O)C(F)(F)F (stereo unspecified) | 3
O=C(c1nc2ccccn2c1CN1CCN(c2ccccc2O)CC1)N1CCCC1 | 2
O=C(Cn1nnc(-c2cc(C(F)(F)F)cc(C(F)(F)F)c2)n1)NNC(=S)Nc1ccc(Cl)cc1 | 14
COC1=CC(=O)CC(C)C12Oc1c(Cl)c(OC)cc(OC)c1C2=O (stereo unspecified) | 17
CCOC(=O)/C(C#N)=C/c1cccc([N+](=O)[O-])c1 | 27
COc1ccc([C@@H]2C[C@H]3CN(Cc4ccccc4OC)C(=O)[C@]34CCCN24)cc1C | 18
CC(Oc1ccc(Cl)cc1Cl)C(=O)Nc1cccnc1 (stereo unspecified) | -4
Cc1ccc(Nc2c(-c3cccnc3)nc3ccc(Br)cn23)cc1 | 12
OCCNCCOCCOc1ccccc1-c1ccccc1 | 12
CC(CC(=O)O)CC(=O)Nc1cccc([N+](=O)[O-])c1 (stereo unspecified) | 15
Nc1nc(N2CCN(c3ccccc3)CC2)n[nH]1 | 9
CC(=O)c1cccc(CN2CCN(C3CCCC3)C(CCO)C2)c1 (stereo unspecified) | 26
CC(C)(C)c1cc(=O)[nH]c(SCc2ccccc2)n1 | 14
O=C(NCCCn1ccnc1)c1cc(S(=O)(=O)N2CCOCC2)ccc1F | 9
CCOC(=O)c1cc(-c2ccc(OC)cc2)n[nH]1 | 16
COC(=O)C1=C(O)/C(=C\c2ccc(CNS(=O)(=O)c3ccc(Cl)cc3)o2)N=C1C | 9
CSc1ncc(CN2CCN(CCC(C)C)C(CCO)C2)cn1 (stereo unspecified) | 11
C#CCSc1nnc(-c2ccc(O)cc2)o1 | 15
C=CCc1c(OC(C)=O)c2ccccc2n(C)c1=O | 9
Cc1sc(NC(=O)c2ccco2)c(CN2CCN(Cc3ccccc3)CC2)c1C | 9
COc1ccc(CC2(CO)CCN(C(=O)NCc3ccccc3)CC2)cc1 | 6
COc1ccc(Nc2nc(Cl)nc(Nc3ccc(OC)cc3OC)n2)c(OC)c1 | 6
CC12CN(C(=O)c3ccccc3Br)CC(C)(CN(C(=O)c3ccccc3Br)C1)C2=O | 14
C/C(CCC(C)C)=N\Nc1ccc(S(N)(=O)=O)cc1[N+](=O)[O-] | 15
CSc1ccccc1NC(=O)COc1ccc(Cl)cc1 | 7
Nc1ncc(-c2ccc([N+](=O)[O-])cc2)cn1 | 7
O=C(/C=C/c1cccc([N+](=O)[O-])c1)N1CCN(C(=O)c2ccco2)CC1 | 15
COCCCNC(=O)CN(c1cc(C(F)(F)F)ccc1Cl)S(C)(=O)=O | 19
Cc1ccc(-n2cc(CNC(C)c3cnn(C)c3)c(-c3ccc(F)cc3)n2)cc1 (stereo unspecified) | 8
CC1SC(c2ccc(Cl)cc2Cl)NC1=O (stereo unspecified) | 12
COC(=O)Cc1ccc(NC(=S)NC2CC2)cc1 | 25
O=C(Nc1cccc(S(=O)(=O)N2CCCCC2)c1)c1ccc(S(=O)(=O)C(F)F)cc1 | -2
The results go on.
SMILES | Biofilm kill mix
O=C1c2ccccc2C(=O)N1CSc1nnc(Nc2ccccc2F)s1 | 8
Cc1sc2nc[nH]c(=S)c2c1-c1ccccc1 | 16
O=S(=O)(Nc1ccc(-c2cn3cccnc3n2)cc1)c1ccccc1 | 11
CCOC(=O)Cc1csc(NC(=O)Cc2ccccc2)n1 | 9
O=C(NCc1nc(-c2ccc(C(F)(F)F)cc2)no1)Nc1ccc(F)cc1F | 19
CCN(CC)CCNc1nc(-c2ccc(OC(F)F)cc2)c(C)s1 | 2
CC(CCc1ccccc1)NC(=O)/C=C/c1ccc(Cl)cc1 (stereo unspecified) | 8
S=C(NCCc1ccccc1)Nc1ccc(Nc2ccccc2)cc1 | 18
O=C1c2ccccc2C(=O)N1c1ccc(Br)c2cccnc12 | 15
CCOc1ccc(OCC)c(S(=O)(=O)NC2CC(C)(C)NC(C)(C)C2)c1 | 5
O=C(c1sc(N2CCOCC2)nc1-c1ccccc1)N1CCCCC1 | 10
Clc1ncccc1-c1nc2ccccc2s1 | 3
CN1CCN(C(=O)c2ccc3c(c2)S(=O)(=O)c2ccccc2C3=O)CC1 | -12
CCCN(CCC)C(=O)c1ccc2c(c1)OCO2 | 16
COc1ccc(/C=N/NC(=O)c2ccccc2O)cc1Cn1cc([N+](=O)[O-])cn1 | 4
COc1cccc2sc(N(CCN(C)C)C(=O)/C=C/c3cccs3)nc12 | 19
Cc1cccc(C)c1NC(=O)CC(NCCc1ccccc1)C(=O)O (stereo unspecified) | 3
Cc1ccc(CNC(=O)COc2ccc(C)nc2[N+](=O)[O-])cc1 | 6
Cc1ccccc1C(=O)NC1CCN(CC(=O)Nc2ccc3c(c2)OCO3)CC1 | 12
O=C(CN1CCCC1)Nc1ccc2c(c1)CCC2 | 10
COc1cc2c(C)nc3c(c(C)nn3-c3ccccc3)c2cc1OC | 13
O=C(Nc1ccccc1)N1CCc2c([nH]c3ccccc23)C1C(F)(F)F (stereo unspecified) | 24
Cc1ccc(Cl)cc1NC(=S)N(Cc1cccnc1)Cc1ccccc1Cl | 11
COc1ccc(CNC(=O)C(=O)NCc2ccncc2)cc1 | 9
O=C(NC(=S)Nc1ccc2oc(=O)ccc2c1)c1ccccc1F | 4
CCn1c2ccccc2c2cc(CN3CCN(S(=O)(=O)CC)CC3)ccc21 | 15
CCN(CC)S(=O)(=O)c1ccc(Cl)c(C(=O)Nc2ccc(Cl)cc2[N+](=O)[O-])c1 | 7
COCCCNC(=S)NNC(=O)c1ccc(C(C)(C)C)cc1 | 18
COc1ccc(-n2c(C)nn(CCOc3ccccc3)c2=O)cc1 | 1
Cc1nc(C(=O)NC(C)C)nn1-c1cc(Cl)cc(Cl)c1 | 5
O=C(NNc1cc(Cl)ccc1Cl)C1CCC1 | 17
CCCCC(=O)Nc1ccc(C(=O)NNC(=S)NC(=O)c2ccccc2[N+](=O)[O-])cc1 | 16
COCCNc1oc(-c2cccs2)nc1S(=O)(=O)c1ccc(C)cc1 | 6

The list is partial (hit frequency here may not be typical).
